Screening results from PubChem BioAssay.
Ab BasE inh = BasE siderophore biosynthesis inhibition; purified BasE, fluorescence polarization binding displacement; inhibition, % (concentration not given with the values); 84,000 compounds, 0.1% hits;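 active = both replicates above 25% with normal brightness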;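 also: 0% = negative plate control signal and 100% = positive plate control signal; stock transfer was 100 nL into about 30 µL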
LANA-nucl inh = LANA-nucleosome interaction inhibition. FITC-LANA1-23 / chicken nucleosome fluorescence polarization; hits give low values. z-score (no concentration beside the values). 51,000 compounds, 0.3% hits;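 active = both repeat wells score below -2 in polarization z-score versus plate sample wells, excluding overly bright wells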;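 also: 100 nL library stock added to about 30 µL; numbers are from one replicate; some results filed as inactive read as strong as hits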
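Assay system: purified chicken nucleosomes with FITC-labelled LANA N-terminal peptide (1-23) / Probe or stimulus: 50 nM FITC-LANA1-23 probe / Compound dosing: pin-transferred compound, 100 nL / Times: compound with peptide–nucleosome mix 10–45 min at room temperature / Technique: fluorescence polarization, 480 nm excitation, 535 nm parallel and perpendicular emission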
* hit, by the source's call; nt = not tested or not shown; & = joins results of further samples.

Every second line gives: LANA-nucl inh	Ab BasE inh
- COc1ccc(C2CC(c3cccs3)=NN2C(=O)CS(=O)(=O)c2cn(C)c3ccccc23)cc1 (stereo not given)
 : -0.13	0.1
- Cc1cc(C)nc(NC(=O)C(c2ccccc2)c2ccccc2)n1
 : -0.37	-0.1
- N=Nc1[nH]c(N)c2ccccc12
 : 0.62	9.3
- COc1ccc(S(=O)(=O)N2CCC(C)CC2)cc1
 : nt	3.6
- Cn1c(C(C(=O)NCC2CCCO2)N(Cc2ccc(F)cc2)C(=O)Cn2nnc3ccccc32)nc2ccccc21 (stereo not given)
 : 0.55	0.1
- Cc1cc(=O)[nH]c2cc3c(cc12)C(C)(C)C(C)N3C (stereo not given)
 : nt	3.6
- CCC(c1n[nH]c(=S)o1)N(C)C (stereo not given)
 : nt	0.7
- O=C(Cn1cnc2ccccc2c1=O)Nc1ccc(S(=O)(=O)N2CCCC2)cc1
 : -0.5	-1.2
- CC(=O)Nc1ccc(C(=O)Cn2ncc(Cl)c(Cl)c2=O)cc1
 : nt	-4.1
- COC(=O)c1ccc(CN2CCCC(C)C2)cc1 (stereo not given)
 : -0.39	0.2
- O=C(NCCC(=O)N1CCN(c2cccc(Cl)c2)CC1)NC12CC3CC(CC(C3)C1)C2
 : nt	2.4
- S=c1[nH]nc(-c2ccccc2)n1C1CCCC1
 : 0.34	1.4
- CN(C)/C=C1/Sc2ccccc2C1=O
 : 0.44	0.3
- CN(CC(=O)NC1CC1)c1ccccc1
 : nt	3.5
- CC1(C(=O)O)CCC(C(=O)NNc2ncnc3ccccc23)C1(C)C (stereo not given)
 : nt	-1.0

Later entries.
Every second line gives: LANA-nucl inh	Ab BasE inh
- O=C1NC(=O)/C(=C/C(=O)N2CCN(C(=O)/C=C3\SC(=O)NC3=O)CC2)S1
 : -0.46	3.5
- CC(C)C(NC(=O)c1ccc(F)cc1)C(=O)Nc1cccnc1 (stereo not given)
 : nt	3.1
- O=C(NCCN1CCOCC1)c1cc2n(n1)CCCN(Cc1ccc(Cl)cc1)C2=O
 : -0.3	-0.1
- O=C(CCN1c2ccccc2Sc2ccccc21)NC1=NCCS1
 : nt	-0.5
- Cc1cc(NCCO)nc(-c2ccc(Br)cc2)n1
 : 0.082	-2.4
- O=C1CC(c2ccco2)CC2=C1C(c1ccco1)N(C(=O)C(F)(F)F)c1ccccc1N2 (stereo not given)
 : nt	-0.8
- O=C(CSc1ncc(C(F)(F)F)cc1Cl)N1CCN(S(=O)(=O)c2ccccc2)CC1
 : nt	-0.2
- O=C(O)CCCn1cc(NC(=O)c2ccc(Cl)cc2)cn1
 : -1.2	-1.0
- CCCCC(=O)c1c(C)cc(C)[nH]c1=O
 : 1.1	0.1
- O=C(c1ccco1)N1CCN(Cc2ccccc2Br)CC1
 : nt	1.8
- Cc1ccc(C2=CC(=O)C=CC2=O)cc1
 : nt	-1.8
- O=S(=O)(Nc1nc2ccc(F)cc2s1)c1ccc(F)cc1F
 : nt	1.0
- FC(F)(F)c1ccn(Cc2n[nH]c(=S)o2)n1
 : nt	0.8
- Cn1cc[nH]c1=S
 : -0.17&-0.42&-0.59&-0.8&-0.35	3.8&-0.9
- Cc1ccc2c(COC(=O)C3=COCCO3)cc(=O)oc2c1
 : nt	2.4

The listing continues:
Every second line gives: LANA-nucl inh	Ab BasE inh
- CC(C)CC(C(=O)n1nnc2ccccc21)N1C(=O)c2ccccc2C1=O (stereo not given)
 : nt	-0.3
- CC(C)N(C(=O)CCCN1C(=O)c2ccccc2C1=O)c1ccccc1
 : nt	3.6
- Cc1ccc(C)c(NC(=O)CN(C)C(=O)CC2OC(=O)c3ccccc32)c1 (stereo not given)
 : nt	-1.2
- Cc1cc(C(=O)OCC#N)c2ccccc2n1
 : nt	1.2
- NC(=O)Cc1ccc2sc(-c3ccccc3)nc2c1
 : nt	-3.7
- COc1cccc(CC(NC(C)=O)C(=O)NC2CCN(C(=O)C3CC3)CC2)c1OC (stereo not given)
 : 1.4	-0.4
- COc1ccc(-n2ncc(NC(=O)N3CCOCC3)c2C)cc1
 : nt	-0.5
- CCOc1ccc(NC(=O)CN2CCN(CC)CC2)cc1
 : -0.57	0.6
- O=C(CCc1nnc2ccc(NCc3ccccc3)nn12)N1CCCC1
 : -1.1	-0.5
- N#CCSCc1ccco1
 : nt	1.7
- CN(Cc1ccccc1)c1nc(-c2ccccc2)cs1
 : 0.58	2.1
- CN1CCC(c2cccs2)=N1
 : nt	-1.1
- Cc1cc2cc(CN3C(=O)c4ccccc4C3=O)ccc2[nH]1
 : -1.2	1.4
- CCCCNC(=O)n1ccc(-c2nn(-c3ccc(F)cc3)ccc2=O)n1
 : -0.54	-0.8
- O=c1[nH]c2ccccc2cc1/C=N/O
 : nt	-0.4

(listing goes on)
Every second line gives: LANA-nucl inh	Ab BasE inh
- CCOC(=O)c1cnn(-c2ncnc3sc4c(c23)CCN(C(=O)OCC)C4)c1N
 : 0.47	1.3
- Cc1[nH]c2ccccc2c(=O)c1CN1CCOCC1
 : 3.7	-10
- Oc1ccc(Br)c2cccnc12
 : 1	57*
- O=C(COC(=O)c1cccc(I)c1)c1ccc(-n2nncc2-c2ccco2)cc1
 : 0.68	1.3
- CCCCn1c(SCC(=O)O)nc2ccccc21
 : 0.88	1.6
- CCN=C1SC(C(=O)Nc2ccc(Br)cc2)CC(=O)N1CC (stereo not given)
 : -1.5	-0.6
- COC(=O)c1ccc(Cn2nc(C(F)(F)F)cc2C)o1
 : 0.86	-0.3
- COc1ccc(CCn2nnc3ccccc3c2=O)cc1OC
 : nt	0.3
- CSc1cccc(NC(=O)CSc2nncn3c2cc2occc23)c1
 : 0.42	-1.8
- C#CCNC(=O)Nc1ccc(C)cc1
 : nt	4.3
- CCOC(=O)C1=C(c2ccccc2)N=C2SCC(=O)N2C1c1ccc(O)c(OC)c1 (stereo not given)
 : 0.61	2.8
- C/C(=N\NC(=O)COc1ccccc1C)c1ccccc1O
 : nt	0.2
- O/N=C/c1cc(Cl)cc(Cl)c1
 : -0.91	-1.5
- CC1=C(C(=O)OC2CCCC2)C(c2cccc(F)c2F)CC(=O)N1 (stereo not given)
 : 0.35	0.3
- COc1ccc(CCN(Cc2nc3ccccc3c(=O)[nH]2)C(=O)c2ccco2)cc1
 : -0.16	-2.4

Additional entries.
Every second line gives: LANA-nucl inh	Ab BasE inh
- COc1cc(OC)c(C2Nc3c(C)cc(C)cc3-c3cc(C)nn32)cc1OC (stereo not given)
 : -0.23	0.2
- Cc1cc(C)cc(NC(=O)Nc2ccc(N3CCCCC3)cc2)c1
 : 0.35	nt
- N#C/C(=C\N1CCOCC1)C(=O)Nc1ccc(F)c(Cl)c1
 : -0.016	3.4
- O=C1c2ccccc2C(O)N1Cc1ccccc1 (stereo not given)
 : 0.007	0.1
- COc1ccc(CCN(C)C(=O)c2ccc3c(c2)C(=O)N(Cc2ccco2)C3=O)cc1OC
 : nt	-0.2
- O=c1[nH]c(Nc2nc3ccccc3[nH]2)nc2cc(Cl)ccc12
 : nt	2.1
- N#Cc1c(SCC(=O)NC23CC4CC(CC(C4)C2)C3)sc2c(=O)[nH]c(=O)[nH]c12
 : 0.18	0.7
- CC(=O)Nc1ccc(Nc2c3c(c(C#N)c4nc5ccccc5n24)CCC3)cc1
 : 0.82	1.9
- Cc1nn(-c2ccccc2)nc1C(=O)Nc1ccccc1C(=O)NCC1CC1
 : -0.14	0.2
- O=C(OCc1nnc(-c2ccccc2)o1)c1cccnc1SCc1nnc(-c2ccccc2)o1
 : nt	1.3
- COCCNC(=O)c1ccc(Oc2ccccc2)cc1
 : nt	0.0
- CCCCNCc1cccn1-c1ccccc1
 : 0.53	-2.2
- CC(C)C(=O)N1c2ccccc2C(Nc2ccccc2)CC1C (stereo not given)
 : 0.15	0.5
- Nc1ccc(C(=O)N/N=C2\CCCc3ccccc32)cc1
 : nt	0.2
- CCOC(=O)c1ccc(NC(=O)Cn2c3c(sc2=O)C2c4ccccc4OCC2CS3)cc1 (stereo not given)
 : 1.2	-1.1

New compounds follow
Every second line gives: LANA-nucl inh	Ab BasE inh
- CCn1c(=O)[nH]c(=O)c2c(N)c(C(=O)c3ccccc3OC)sc21
 : nt	-0.6
- CCOc1ccc(CN(C)CC(=O)c2c(N)n(Cc3ccccc3)c(=O)n(CC)c2=O)cc1OC
 : nt	-3.0
- Cc1nnc(SCC(=O)N(C)C2CCCCC2)n1C
 : nt	1.6
- O=C(O)CC(CC(=O)Nc1ccc(Oc2ccccc2)cc1)c1ccccc1 (stereo not given)
 : nt	4.3
- N#Cc1cccc(NC(=O)Nc2ccc3c(c2)OCC(=O)N3Cc2ccccc2)c1
 : -0.41	1.9
- C=CCSc1ncc(Cl)c(C(=O)NCc2ccc3c(c2)OCO3)n1
 : -0.089	-1.4
- CCN(CC)S(=O)(=O)c1cccc(-c2nnc(SCc3c(C)noc3C)n2CCc2ccccc2)c1
 : nt	-5.1
- O=C(NC1CCSC1=O)c1ccc(Br)cc1 (stereo not given)
 : -0.15	-0.1
- NC(=O)C1(N2CCCCC2)CCN(C(=O)c2ccccc2)CC1
 : -0.69	1.5
- CCSc1nc(C)c2cc(OC)ccc2n1
 : nt	0.6
- O=C1CSC(N(CC(=O)N2CCc3ccccc32)Cc2ccccc2)=N1
 : nt	-2.1
- COc1ccc(NC(=O)CS(=O)(=O)c2ccc3c(c2)S(=O)(=O)N=CN3)cc1
 : 0.52	-1.9
- O=C(COc1nncc2ccccc12)Nc1ccc(F)c(F)c1
 : nt	-2.8
- COCCNC(=O)c1cc(Br)cs1
 : 0.078	2.0
- Cn1c(C(=O)O)cc2ccccc2c1=O
 : nt	-0.3

Single records, as listed above. Values in the order: LANA-nucl inh	Ab BasE inh
`N#Cc1cccc(NC(=O)Nc2ccc3c(c2)OCC(=O)N3Cc2ccccc2)c1` is entered as -0.41	1.9
`COc1ccc(NC(=O)CS(=O)(=O)c2ccc3c(c2)S(=O)(=O)N=CN3)cc1` is entered as 0.52	-1.9

Next part.
Every second line gives: LANA-nucl inh	Ab BasE inh
- COc1ccc(/C=C(/NC(=O)c2ccccc2)C(=O)N2CC(C)OC(C)C2)cc1 (stereo not given)
 : nt	2.3
- O=c1n(Cc2ccc(Br)cc2)nnn1-c1ccccc1
 : nt	0.6
- Cn1ccnc1-c1nc2ccccc2[nH]c1=O
 : nt	2.9
- Cc1ccc(N2C(=O)N(c3ccccc3)C(=N)C2=S)cc1Cl
 : nt	-2.3
- N#CCn1cc(C(=O)C(F)(F)F)c2ccccc21
 : 0.36	-3.1
- C=CCSc1nc2ccccc2c(=O)n1CC1CCCO1 (stereo not given)
 : -0.67	2.0
- Cc1sc(NC(=O)/C=C/C(=O)O)c(C#N)c1C
 : nt	-0.2
- CCN(CC)CCOc1ccc(/C(=C(\Cl)c2ccccc2)c2ccccc2)cc1
 : 0.21&-0.089	0.2
- Cc1cccc(N2CCN(C(=O)CCNS(=O)(=O)c3cccc4nsnc34)CC2C)c1 (stereo not given)
 : 0.068	3.2
- CCCCNC(=O)Cc1ccc(Br)cc1
 : 2.3	-1.0
- Cc1ccc2c(c1)NC(=O)c1cc(S(=O)(=O)N3CC(C)OC(C)C3)ccc1O2 (stereo not given)
 : 0.46	-0.3
- S=c1oc(C2COc3ccccc3O2)nn1CN1CCN(C/C=C/c2ccccc2)CC1 (stereo not given)
 : nt	-0.3
- CCC(=O)N(Cc1cc2ccc(C)cc2n2nnnc12)C1CCCCC1
 : 0.67	-2.0
- O=C(CC(C(=O)O)C1CCCO1)Nc1cccc(C(F)(F)F)c1 (stereo not given)
 : -1.4	1.0
- Cc1cc(NC(=O)COC(=O)C2(c3ccc(Cl)cc3)CCCC2)no1
 : nt	0.5

Carrying on:
Every second line gives: LANA-nucl inh	Ab BasE inh
- CCOC(=O)N1CCC(NC(=O)CCn2cccc2)CC1
 : -0.9	1.7
- O=C1c2ccccc2C(=O)N1CCSC1=Nc2ccccc2C2CC=NN12 (stereo not given)
 : nt	1.6
- Cc1ccc2nc(CCCC(=O)OC(C)C)[nH]c2c1
 : -1.1	0.3
- C=C(C)CC1(CC(=C)C)CCCCN1
 : 0.15	1.3
- O=C(c1cccc(C(F)(F)F)c1)C1CCN(C(=O)N2CCOCC2)CC1
 : 0.99	0.4
- Nc1nn(-c2ccc(Cl)cc2Cl)cc1-c1cccs1
 : 0.56	nt
- Cc1cccc(C)c1NC(=O)C1C2C=CC(C2)C1C(=O)O (stereo not given)
 : -1	2.9
- CC(C)N1C(=O)CC(N2CCOCC2)C1=O (stereo not given)
 : 0.43	-0.9
- CC(C)n1c(-c2ccccc2)nc(=S)c2c1CCCC2
 : 0.64	0.4
- O=C(NC1CCCC1)c1csc2c1CCCC2
 : -0.035	0.4
- Cn1c(SCc2ccccc2)nnc1C1CCCN1S(C)(=O)=O (stereo not given)
 : -1.2	3.0
- O=C1CC(c2coc3ccccc3c2=O)Sc2ccccc2N1 (stereo not given)
 : nt	-3.8
- Cc1ccc(S(=O)(=O)NCc2c(C)nn(C)c2C)cc1
 : -0.33	0.9
- O=C(Sc1ccc(Cl)cc1)c1ccc(-c2cccs2)s1
 : nt	0.2
- COC(=O)c1ccc(COC(=O)Cc2n[nH]c(=O)c3ccccc23)o1
 : nt	0.4

Later entries:
Every second line gives: LANA-nucl inh	Ab BasE inh
- CCOC(=O)c1cc2c(ccn2-c2ccc(F)cc2)n1CC(=O)N1CCc2ccccc21
 : -1.5	1.6
- O=C1NC(=O)C(=Cc2ccc(N3CCCC3)cc2)C(=O)N1
 : -1.4	2.6
- CSc1ccccc1C(=O)N1CC(C)OC(C)C1 (stereo not given)
 : -0.98	2.0
- O=C(/C=C/c1ccco1)N1C(=Nc2ccccc2)SCc2ccccc21
 : nt	-3.1
- COc1cc(CN(C)C(=O)C2CCN(C(C)=O)CC2)ccc1OCc1ccccc1
 : nt	-0.1
- CCN(C(=O)CSc1ccccn1)c1c(N)n(Cc2ccccc2)c(=O)[nH]c1=O
 : nt	1.4
- CNC(=O)c1cc2c(s1)CCCCCC2
 : 0.47	-1.3

The list is partial; the hit share may differ from the screen's.
